# Assay outcomes as filed in PubChem BioAssay.
# Mtb hypoxia rep – Mtb hypoxia fluorescent reporter inhibition. fluorescence inhibition, % (test concentration not listed). 300,000 tested, 0.1% active. M. tuberculosis hypoxia-regulated fluorescent reporter, fluorescence;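 active = 35 to 45% if threefold the growth effect, above 45% if 1.5-fold the growth effect; inactive = the rest, general growth blockers included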;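 note: wells of about 50 µL received 100 nL stock; 0% = vehicle wells and 100% = reference inhibitor wells; whole bacteria with a GFP reporter of the hypoxia response; strong numbers were not always called active; many hits fall short of the cut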
# BJeLR viability – BJeLR cell viability loss; AID 1554; BJeLR (HRASV12) viability, CellTiter-Glo ATP luminescence, 48 h; reference of the scale not given here; inhibition, % (test concentration not listed); 300,000 tested, 0.17% active;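 active = replicate mean above 50%; inconclusive = above 50% but judged a plate artefact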;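 note: 50 nL library stock added to about 25 µL; numbers are from one replicate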
# Autofluor counter – compound fluorescence in toxin protease inhibitor counterscreen | 360,000 tested, 3.1% active | AID 624483 | fluorescence intensity (test concentration not listed) | compound autofluorescence counterscreen, microsphere flow cytometry; hits give high values;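 active = at least 3 SD above the mean of all compounds, about 16000 in these data; inconclusive = too few beads counted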;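 note: 100 nL of 1 mM stock went into each well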
# PrP 5UTR inh – inhibition of PrP 5' UTR reporter expression; cell-based PrP 5' UTR mRNA reporter, plate reader; 340,000 tested, 0.35% active; AID 488862; inhibition, % (concentration not given with the values);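 active = every replicate at 50% or more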;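 note: 0 = median of the neutral control wells; tested in H4 reporter cells; numbers are from one replicate; inactives centre near -14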
# RN4220 kill – kills Staphylococcus aureus RN4220; S. aureus RN4220 growth, OD600, 16 h; inhibition, % (concentration not given with the values); 330,000 tested, 0.33% active;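 active = z-score of -3 or lower and OD600 up to 0.18 on both plates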;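 note: plate controls were untreated cells for no effect and reference antibiotic for full effect; stock transfer was 100 nL into about 80 µL; one replicate is shown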
# Sa ugtP lethal – growth inhibition of S. aureus ugtP deletion strain; 330,000 tested, 0.54% active; growth inhibition, % (concentration not given with the values); AID 1259309; S. aureus RN4220 ugtP deletion, OD600 growth, 16 h; some inactives read as strong as hits;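 active = z-score under -3 and OD600 up to 0.15 on both plates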;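 note: plate controls were untreated wells for no effect and antibiotic for full effect; wells of about 80 µL received 100 nL stock; the first replicate is given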
# Mtb hypoxia rep growth – further read-out of Mtb hypoxia rep, marked with its call; growth inhibition, %; measured here: M. tuberculosis growth (absorbance);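 0% = vehicle and 100% = reference antibiotic; read after six days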
# * = called active by the depositor; ? = inconclusive; · = not tested or not shown.
# The opening 3 entries, ahead of the listing:
1) O=C(CN1C(=O)NC2(CCc3ccccc32)C1=O)NCC(F)(F)F (stereo unspecified)
2) CC(=O)c1ccc(OC2OCCOC2Oc2ccc(C(C)=O)cc2)cc1 (stereo unspecified)
3) N#CC12CCCCC1CC1CCCCC1(C#N)N2Cc1ccccn1 (stereo unspecified)
Assay by compound	1	2	3
Mtb hypoxia rep	5	8	·
Mtb hypoxia rep growth	-3	-1	·
BJeLR viability	-7	5	-10
Autofluor counter	3753	2428	4682
PrP 5UTR inh	-24	-16	-20
RN4220 kill	4.2	-1.7	1.1
Sa ugtP lethal	10	10	3

# This part in full, repeating the preview:
1) O=C(CN1C(=O)NC2(CCc3ccccc32)C1=O)NCC(F)(F)F (stereo unspecified)
2) CC(=O)c1ccc(OC2OCCOC2Oc2ccc(C(C)=O)cc2)cc1 (stereo unspecified)
3) N#CC12CCCCC1CC1CCCCC1(C#N)N2Cc1ccccn1 (stereo unspecified)
4) COc1cc(NC(=O)c2ccccc2OCc2ccccc2)cc(OC)c1OC
5) O=C(O)CCc1ccc(-c2cccs2)n1NC(=O)c1ccco1
6) CN1CCN(CCCNC(=O)c2ccc3c(=O)n(CCc4ccccc4)c(=O)[nH]c3c2)CC1
7) COCCCN1C(=O)c2ccc(C(=O)OCC(=O)NCc3cccc(OC)c3)cc2C1=O
8) Fc1cccc(F)c1-c1nc(-c2ccncc2)no1
Assay by compound	1	2	3	4	5	6	7	8
Mtb hypoxia rep	5	8	·	9	·	-6	-2	0
Mtb hypoxia rep growth	-3	-1	·	7	·	11	-5	-1
BJeLR viability	-7	5	-10	4	-3	9	·	1
Autofluor counter	3753	2428	4682	3451	5049	3600	?	3698
PrP 5UTR inh	-24	-16	-20	-6	-17	-22	-22	-37
RN4220 kill	4.2	-1.7	1.1	-1.9	-1.4	-0.6	4.6	2.0
Sa ugtP lethal	10	10	3	6	-6	0	3	4

# Only BJeLR viability, Mtb hypoxia rep and Mtb hypoxia rep growth, for six of the compounds above:
No. | SMILES | BJeLR viability | Mtb hypoxia rep | Mtb hypoxia rep growth
3 | N#CC12CCCCC1CC1CCCCC1(C#N)N2Cc1ccccn1 (stereo unspecified) | -10 | · | ·
4 | COc1cc(NC(=O)c2ccccc2OCc2ccccc2)cc(OC)c1OC | 4 | 9 | 7
5 | O=C(O)CCc1ccc(-c2cccs2)n1NC(=O)c1ccco1 | -3 | · | ·
6 | CN1CCN(CCCNC(=O)c2ccc3c(=O)n(CCc4ccccc4)c(=O)[nH]c3c2)CC1 | 9 | -6 | 11
7 | COCCCN1C(=O)c2ccc(C(=O)OCC(=O)NCc3cccc(OC)c3)cc2C1=O | · | -2 | -5
8 | Fc1cccc(F)c1-c1nc(-c2ccncc2)no1 | 1 | 0 | -1

# (listing goes on)
9) COc1ccccc1C(=O)C1CCCN(C(=O)c2snnc2C)C1 (stereo unspecified)
10) O=C(CCS(=O)(=O)c1cccc2nonc12)Nc1cccc2c1CCCC2
11) CC#CC[N+](C)(C)CCCCCCCC
12) COc1ccc(NC(=O)c2sccc2SCC#N)cc1
13) O=C(/C=C/c1ccc2c(c1)OCO2)c1ccc(O)cc1O
14) CC(=O)NCc1ccc(C(=O)CCl)s1
15) COC(=O)c1ccc(/C=C/C(=O)c2ccc(OC)cc2)cc1
16) CCN1C(=O)N[C@H](c2ccc(Br)cc2)C(C(C)=O)=C1C
Assay by compound	9	10	11	12	13	14	15	16
Mtb hypoxia rep	13	15	7	7	-4	8	9	·
Mtb hypoxia rep growth	-3	20	15	6	2	13	4	·
BJeLR viability	6	5	13	-3	·	2	-4	6
Autofluor counter	4319	3990	4103	11217	3661	4034	22281*	4133
PrP 5UTR inh	3	-1	-16	-26	-48	4	-14	-2
RN4220 kill	-1.6	5.7	3.6	4.1	3.9	13	1.8	·
Sa ugtP lethal	2	-2	5	3	-21	1	12	·

17) Cc1ccc(-c2noc(CN3CCN(Cc4ccccc4)CC3)n2)cc1
18) COC(=O)C1CC(=O)c2ccsc2C1 (stereo unspecified)
19) S=C(NCCCN1CCOCC1)Nc1ccc(N2CCOCC2)cc1
20) COCCCNC(=O)CCc1nnc2ccc(N3CCC(C)CC3)nn12
21) CCCCC[C@H]1CN(CCCC)C(=O)[C@@H]1CC(=O)NCc1ccccc1
22) O=C(CSc1ccc(F)cc1)Nc1ccc(N2CCOCC2)cc1
23) O=C(C1CCN(S(=O)(=O)N2CCOCC2)CC1)N1CCc2ccccc21
24) CCOC(=O)C1CCN(C(=O)N(CC)CC)CC1
Assay by compound	17	18	19	20	21	22	23	24
Mtb hypoxia rep	5	·	8	9	·	9	·	0
Mtb hypoxia rep growth	7	·	13	4	·	7	·	-10
BJeLR viability	-7	6	8	7	-2	4	1	-3
Autofluor counter	23533*	8250	3987	3105	3346	4256	·	2659
PrP 5UTR inh	5	-14	-4	-13	-4	-18	·	-34
RN4220 kill	4.5	·	1.7	-0.3	·	1.2	5.4	1.7
Sa ugtP lethal	28	·	5	11	·	17	2	8

25) CCC(=O)c1cn(C(=CC(=O)OC(C)(C)C)CCC(OC)OC)cc1CC
26) CCCCC(=O)Nc1ccc(C2C(=O)c3ccccc3C2=O)cc1
27) O=C(O)C(F)(F)C(NCc1ccccc1)c1ccccc1 (stereo unspecified)
28) O=C(Cc1cc(=O)[nH][nH]1)N/N=C/c1ccccc1[N+](=O)[O-]
29) COCCN(C(=O)CSc1nc2ccccc2c(=O)n1CCOC)c1c(N)n(Cc2ccccc2)c(=O)[nH]c1=O
30) CCc1c(C)nc2cc(-c3cccs3)[nH]n2c1=O
31) COC(=O)c1ccc(C2N=C(c3cccs3)CC(c3ccccc3O)N2)cc1 (stereo unspecified)
32) O=C(NC1CCCCC1)C1CCN(S(=O)(=O)c2cccc3nonc23)CC1
Assay by compound	25	26	27	28	29	30	31	32
Mtb hypoxia rep	8	6	-10	·	3	·	5	16
Mtb hypoxia rep growth	-5	13	5	·	-1	·	11	-5
BJeLR viability	·	11	-4	3	7	-4	-4	-8
Autofluor counter	·	5590	4755	1931	5094	2981	3303	4351
PrP 5UTR inh	·	-14	-15	-15	-24	-24	-15	-8
RN4220 kill	4.1	3.3	5.0	·	6.4	·	-2.8	2.7
Sa ugtP lethal	2	-1	12	·	9	·	10	-1

# Among those listed so far, two have a COOH group.
5) O=C(O)CCc1ccc(-c2cccs2)n1NC(=O)c1ccco1
27) O=C(O)C(F)(F)C(NCc1ccccc1)c1ccccc1 (stereo unspecified)
Assay by compound	5	27
Mtb hypoxia rep	·	-10
Mtb hypoxia rep growth	·	5
BJeLR viability	-3	-4
Autofluor counter	5049	4755
PrP 5UTR inh	-17	-15
RN4220 kill	-1.4	5.0
Sa ugtP lethal	-6	12

# More records follow:
33) O=C(Cc1c(F)cccc1Cl)Nc1ccc(S(=O)(=O)N2CCCC2)cc1
34) Cc1cc(C)nc(N=C(N)Nc2ccc(S(=O)(=O)O)cc2)n1
35) COc1cc(NC(=O)c2c(Cl)cnn2C)c(OC)cc1Cl
36) Cc1cc(C)n(C(=O)CNC(=O)COc2ccccc2)n1
37) O=C(c1ccccc1)c1c(-c2ccccc2)[nH]n(-c2ccccc2)c(=O)c1=O
38) CC1CCN(CC(=O)Nc2ccc(S(=O)(=O)N3C(C)CCCC3C)cc2)CC1 (stereo unspecified)
39) Cc1ccc(C2(C(=O)N3CCC(n4nc(-c5ccccc5)oc4=O)CC3)CC2)cc1
40) COCCNc1nc(SCC(=O)N2CCN(c3ccccc3OC)CC2)nc2ccccc12
Assay by compound	33	34	35	36	37	38	39	40
Mtb hypoxia rep	2	-1	-4	·	15	16	-3	1
Mtb hypoxia rep growth	2	12	8	·	6	12	-4	0
BJeLR viability	0	·	-2	·	-8	-10	-4	9
Autofluor counter	5240	·	2265	4107	5273	3543	5431	9725
PrP 5UTR inh	-9	·	-8	-12	-7	-26	-8	-2
RN4220 kill	19	2.2	1.1	-0.8	4.2	7.2	0.8	3.7
Sa ugtP lethal	7	-5	-1	-2	-4	4	-4	3

41) O=C(Nc1c(Cl)ccc2nsnc12)c1ccc([N+](=O)[O-])o1
42) COc1ccc(NC(=O)CSc2nc(=O)n(CCN(C)C)c3c2CCCC3)cc1OC
43) CC1C(=O)C(C)C(c2ccco2)NC1c1ccco1 (stereo unspecified)
44) CC(/C=N/n1c(-c2ccco2)n[nH]c1=S)=C\c1ccccc1
45) Oc1ccc(-c2csc(-c3cccnc3)n2)cc1O
46) CCOC(=O)c1sc(N(Cc2ccccc2)C(=O)COC(=O)c2cnccn2)nc1C
47) CC(C)(C)c1n[nH]c(=S)n(N=Cc2cccs2)c1=O
48) O=C1c2ccccc2NC(c2ccc(F)cc2)N1Cc1ccccc1 (stereo unspecified)
Assay by compound	41	42	43	44	45	46	47	48
Mtb hypoxia rep	·	8	7	·	12	2	6	12
Mtb hypoxia rep growth	·	4	8	·	-8	5	5	0
BJeLR viability	2	-2	7	5	0	4	·	1
Autofluor counter	4447	6600	8499	2030	5130	2813	·	3572
PrP 5UTR inh	-36	-16	-18	-16	-50	-10	·	-4
RN4220 kill	·	1.0	1.6	·	10	2.7	6.7	-0.7
Sa ugtP lethal	·	4	9	·	2	6	2	11

49) CCC(=NCCN1CCOCC1)c1c(O)n(-c2ccccc2C)c(=O)[nH]c1=O
50) CCC(C)NC(=S)N(CCc1ccccc1)Cc1cc2cc(OC)c(OC)cc2[nH]c1=O (stereo unspecified)
51) COc1cc(-c2nc(-c3ccc(NC(=O)c4ccc(Br)o4)cc3)no2)cc(OC)c1OC
52) CC(C)(C)C1CCc2[nH]nc(C(=O)O)c2C1 (stereo unspecified)
53) O=C(O)c1ccc(S(=O)(=O)N(Cc2ccc(F)cc2)C2CCCCC2)cc1
54) Cc1c(C(=O)OC2CCCC2C)[nH]c2c1C(=O)CCC2 (stereo unspecified)
55) O=C(NNC(=O)c1cccc(C(F)(F)F)c1)c1ccc(-n2cnnn2)cc1
56) O=[N+]([O-])c1ccccc1/C=C/C=Nn1c(-c2ccccc2F)n[nH]c1=S
Assay by compound	49	50	51	52	53	54	55	56
Mtb hypoxia rep	10	6	-2	·	-9	·	3	16
Mtb hypoxia rep growth	11	1	19	·	-8	·	2	11
BJeLR viability	-4	2	-1	·	-11	-1	·	·
Autofluor counter	3619	2342	9503	2560	·	5964	4008	·
PrP 5UTR inh	-5	-10	-44	-27	2	-58	-6	·
RN4220 kill	4.2	4.8	10	0.8	7.0	7.5	4.4	11
Sa ugtP lethal	4	14	-2	8	-9	9	0	4

57) Cc1c(Br)c([N+](=O)[O-])nn1C(C)C(=O)NCc1cccnc1 (stereo unspecified)
58) O=C(CN1C(=O)COc2ccc(S(=O)(=O)N3CCOCC3)cc21)NCc1ccccn1
59) O=C1C(Cl)=C(NC2CCCCC2)C(=O)N1c1ccc(Cl)cc1
60) Cc1occc1-c1nnc(SCC(=O)NC(=O)NC(C)C)n1N
61) O=C(N/N=C/c1ccccn1)c1cc(-c2ccc3ccccc3c2)n[nH]1
62) COc1ccc(NC(=O)CCC(=O)OCc2ccc([N+](=O)[O-])cc2)cc1
Assay by compound	57	58	59	60	61	62
Mtb hypoxia rep	3	7	-9	8	·	5
Mtb hypoxia rep growth	2	-9	-10	-3	·	1
BJeLR viability	-11	3	-10	-14	-1	-6
Autofluor counter	20382*	3221	1996	3597	2512	1880
PrP 5UTR inh	-24	11	-13	-20	-5	9
RN4220 kill	0.3	3.2	-3.2	0.2	·	1.8
Sa ugtP lethal	6	4	7	4	·	5
